# gsp agonist = qHTS for Agonist of gsp, the Etiologic Mutation Responsible for Fibrous Dysplasia/McCune-Albright Syndrome: qHTS. gsp mutant cells, cAMP HTRF, 30 min; control for the full effect not named in the record. hit rate 0.13% among 340,000. Potency, µM (top dose mostly 76.9 µM), without a hit: at the top dose activation (cAMP increase), actives largely listed as activators; active = well fitted activation curve with a large enough effect; inconclusive = small, poorly fitted or top-dose-only effect, or another doubt; inactive = no such curve, though single readings can be large or run the other way; cell line not stated here;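 note: phosphodiesterase inhibitor Ro 20-1724 added with compounds to block cAMP breakdown; potency is the fitted concentration of half-maximal effect; nearly all actives have a fitted effect of over 60% in size; about a fifth of the inactives were tested at one dose only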
#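 Cells stably selected in G418 were plated at 2000/well, grown 16-24 hr, then given compounds in DMSO with the PDE inhibitor […] (300 uM solution added) for 30 min at 37C; cAMP was read by HTRF.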
# Menin-MLL FL inh = qHTS Assay for Inhibitors Targeting the Menin-MLL Interaction in MLL Related Leukemias: Competition With Fluorescein Labeled MLL-derived Peptide; FP activity change, % at 61.4 µM; 290,000 tested, under 10 active; Fluorescence polarization, fluorescein-MLL peptide displacement from menin; inconclusive = falling polarisation curve, or a change in total fluorescence; inactive = total fluorescence flat and polarisation flat or rising; no compound was filed as active; the % refers to the polarisation; negative = inhibition;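 note: % of control where 0% means no effect; inhibitors lower the polarisation; unlabelled MLL peptide was the positive control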
# ClpP mod = qHTS Assay for Activators of ClpP. hit rate 1.9% among 340,000. purified B. subtilis ClpP, FRET peptide cleavage, 20 min. ATP-dependent Clp protease proteolytic subunit (Bacillus subtilis (strain 168)), P80244. Potency, µM (top dose mostly 57.5 µM), without a hit: at the top dose activity change, negative = active; active = well fitted falling curve with a large enough effect; inconclusive = small, poorly fitted or top-dose-only effect; inactive = no such curve, though single readings can be large or run the other way; note: potency is the fitted concentration of half-maximal effect; the source files actives as falling curves though it sought activators and does not explain the sign; nearly all actives have a fitted effect of over 65% in size; many hits overshoot -100%
# Target sequence (P80244 whole entry, looked up): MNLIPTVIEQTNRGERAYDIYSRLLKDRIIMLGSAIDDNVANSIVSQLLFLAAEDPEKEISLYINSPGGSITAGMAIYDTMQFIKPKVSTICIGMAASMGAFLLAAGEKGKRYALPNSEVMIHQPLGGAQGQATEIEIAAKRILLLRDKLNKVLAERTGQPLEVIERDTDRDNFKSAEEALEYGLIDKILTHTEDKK
#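 ClpP 10 microg/mL final, pH 8 Tris/KCl buffer with BSA, glycerol, Tween-20; compound pinned in; FRET-FV substrate; RT 20 min; Ex320/Em430; ΔFRET vs ADEP 5.8 microM, DMSO, no enzyme.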
# gsp antag = qHTS for Antagonists of gsp, the Etiologic Mutation Responsible for Fibrous Dysplasia/McCune-Albright Syndrome: qHTS; gsp-mutant cells, cAMP HTRF, 30 min; control for the full effect not named in the record; hit rate 0.4% among 340,000; AID 624288, 2012; Potency, µM (series often up to 76.9 µM), for the others: at the top dose activity change, negative = inhibition, actives largely listed as inhibitors; active = falling curve of any shape with a large fitted effect; inconclusive = falling curve, mostly with a smaller effect; inactive = flat or rising curve; cell line not stated here;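 note: intracellular cAMP measured with PDE inhibitor Ro 20-1724 present during compound exposure; potency is the fitted concentration of half-maximal effect; % is set by controls: 0 for no effect and ±100 for the full control effect; nearly all actives have a fitted effect of over 65% in size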
#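 HTRF cAMP read-out (cAMP-d2 plus anti-cAMP antibody-K in lysis buffer, 30 min RT). Before lysis, cells are exposed to compounds with […] for 30 min at 37C in DPBS containing Ca/Mg, BSA and Tween 20.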
# Sfp inh = qHTS Assay for Inhibitors of Bacillus subtilis Sfp phosphopantetheinyl transferase (PPTase). 4'-phosphopantetheinyl transferase ffp (Bacillus subtilis), Q9F4F7. Biochemical Sfp PPTase activity, qHTS. Potency, µM, without a hit: max response, negative = inhibition, actives largely listed as inhibitors. hit rate 3.5% among 310,000. AID 1490, 2009; active = well fitted inhibition curve with a large enough effect; inconclusive = small, poorly fitted or top-dose-only effect, or another doubt; inactive = no such curve, though single readings can be large or run the other way;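 note: the enzyme is Sfp with the accession as filed and its product quenches rhodamine fluorescence; potency is the fitted concentration of half-maximal effect; 0% = enzyme reaction without inhibitor and -100% = no enzyme wells; top concentration of the series not given in the record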
#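 With Hepes-Na pH 7.6 buffer containing 10 mM MgCl2, Sfp (15 nM) modified BHQ-2-YbbR (12.5 uM) using rhodamine-CoA (5 uM). Two reads 30 minutes apart at 525/598 nm yielded each well's rate.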
# PINK1 expr mod = A Quantitative High throughput Screen to Identify Chemical Modulators of PINK1 Expression; PINK1 immunofluorescence, high-content cytometry, 24 h; Potency, µM (doses to about 76.6 µM), inactives show at the highest dose activation (PINK1 increase), most hits filed as activators; hit rate 0.2% among 410,000; AID 624263, 2012; active = well fitted activation curve with a large enough effect; inconclusive = small, poorly fitted or top-dose-only effect; inactive = flat fitted curve, though single readings scatter; cell line not stated here;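 note: potency is the fitted concentration of half-maximal effect; % of control where 0% means no effect; nearly all actives have a fitted effect of over 65% in size; a mitochondrial uncoupler was the plate control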
#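 Stable cell line treated 24 h with compounds at 5 concentrations (CCCP controls), then fixed and immunostained for PINK1 plus nuclear and cell stains; PINK1 immunofluorescence quantified by laser-scanning microplate cytometry.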
# D2 agonist = Beta-Arrestin HTS for Positive Allosteric Modulators of the Human D2 Dopamine Receptor: Agonists; DiscoveRx PathHunter D2 beta-arrestin, luminescence, 90 min; 100% = 57 uM dopamine signal; AID 624465, 2012; activation, % (no concentration beside the values); D(2) dopamine receptor (Homo sapiens), P14416; hit rate 0.084% among 360,000; in the data active = activation above about 40%; inconclusive = about 15% to 40%; inactive = below about 15%; note: compound concentration not given in the record; the text of the record calls up to 30% inactive
# Target sequence (P14416 whole entry, looked up): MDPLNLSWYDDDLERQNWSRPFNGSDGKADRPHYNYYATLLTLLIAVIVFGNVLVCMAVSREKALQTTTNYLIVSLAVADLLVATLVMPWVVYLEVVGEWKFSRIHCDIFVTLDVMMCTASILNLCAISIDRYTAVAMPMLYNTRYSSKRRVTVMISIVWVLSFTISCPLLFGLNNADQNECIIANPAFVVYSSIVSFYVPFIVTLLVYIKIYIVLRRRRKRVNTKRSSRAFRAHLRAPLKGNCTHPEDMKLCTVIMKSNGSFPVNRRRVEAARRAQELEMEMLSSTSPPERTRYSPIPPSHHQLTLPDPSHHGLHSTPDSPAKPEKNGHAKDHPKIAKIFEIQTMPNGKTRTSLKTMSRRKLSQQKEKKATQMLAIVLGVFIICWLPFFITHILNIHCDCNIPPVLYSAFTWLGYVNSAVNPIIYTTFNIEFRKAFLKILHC
#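 Agonist mode: compounds alone added to overnight-plated D2 PathHunter cells for 90 min at 37 C, with 57 uM final dopamine (EC100) defining full response. Beta-arrestin recruitment detected by chemiluminescent reagent, read after 1 h at ambient temperature.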
# An asterisk follows results filed as active; ? = inconclusive; · = no result given; & = joins results of further samples; [ ] = another dose, or the depositor's remark. Compounds were not picked by outcome. Share with any hit: about 5.1%.
SMILES,gsp agonist,Menin-MLL FL inh,ClpP mod,gsp antag,Sfp inh,PINK1 expr mod,D2 agonist
CCOc1ccc(N(CC(=O)NC2CC3CCC2C3)S(=O)(=O)c2ccccc2)cc1 (configuration not stated),-14%,-5.9,0.0%,-2%,3%,1.7%,-5.7
CC(C)CN1CCC(=O)N(CCO)CC1,·,1.2,2.5%&-5.0%,1%,20%,0.5%,-0.9
O=C(c1cccc(NS(=O)(=O)c2ccc(F)c(F)c2)c1)N1CCN(Cc2ccccc2)CC1,-34%[inhibitor],7.0,0.3%,-21%,3%,-0.8%,2.8
Cc1cc(NC(=O)c2ccc(Cl)cc2Cl)n(CCC#N)n1,-17%,-3.1,·,10%,6%,1.9%,-0.2
COc1ccc(-n2nc(C(=O)NCC(=O)N3CCN(c4ccccc4)CC3)c3ccccc3c2=O)c(OC)c1,2%[15.4 µM],?,·,-8%,-9%,-0.5%,-2.6
FC(F)Sc1ccc(-n2cc(-c3ccccc3)[n+]3c2CCC3)cc1,19%,3.1,-1.2%,5%,5%,0.7%,-6.7
Cc1ccc(CN(c2ccc(C(=O)NCC3CCCO3)cc2)S(C)(=O)=O)cc1 (configuration not stated),-41%[inhibitor],-1.4,-0.6%,0%,16%,0.4%,-19
CC(=O)c1cccc(NC(=O)CN(C)S(=O)(=O)c2ccc3c(c2)CC(C)N3C(C)=O)c1 (configuration not stated),20%,3.0,-1.0%,-5%,29%,-0.7%,-0.8
CSc1ccccc1NC(=O)Nc1cccc(F)c1,0%[15.4 µM],5.1,·,0%,8%,3.7%,-2.2
CCC1Nc2ncnc(N3CCCCC3)c2N(Cc2ccccc2)C1=O (configuration not stated),23%,·,-0.4%,-3%,·,0.2%,-5.3
COc1ccccc1-c1nc(SCC(=O)N2CCOCC2)n[nH]1,-8%[15.4 µM],-1.9,·,20%,6%,2.0%,0.3
COC(=O)c1ccc(NC(=O)CCN2CCOCC2)cc1,7%,-2.3,-2.6%,3%,22%,0.1%,-3.7
Cc1nc2ccccc2nc1CSc1nncs1,9%,-3.8,2.4%,6%,18%,-3.7%,-3.9
CC(=O)Oc1ccc(-c2csc(Nc3ccc(S(N)(=O)=O)cc3)n2)cc1,?,0.1,·,-16%,9%,-0.9%,1.5
COc1ccc(OC)c(C2CC(c3ccccc3)=NN2C(=S)Nc2ccccc2)c1 (configuration not stated),-45%[inhibitor],4.7,-4.8%,?,7%,5.2%,-2.4
Cc1cccc(NC(=O)CSCc2cc(=O)n3ccsc3n2)c1C,?,·,-6.4%,2%,2%,0.3%,2.4
COc1ccc(N2CCN(C(=O)C3CCN(C(=O)c4ccc([N+](=O)[O-])cc4)CC3)CC2)cc1,-21%,5.1,-2.6%,-16%,14%,0.0%,5.5
O=c1[nH]cnc2c1sc(=S)n2-c1ccccc1,7%,6.1,-2.8%,-21%,18µM*,3.6%,-0.6
O=C(Cc1c(F)cccc1Cl)NCCc1c[nH]c2ccccc12,11%,-1.4,·,0%,4%,-0.5%,0.6
O=C(COc1ccc(Cl)cc1)N1CCN(S(=O)(=O)c2ccc(Cl)cc2)CC1,3%,2.1,1.2%,-15%,1%,7.4%[38.3 µM],-0.8
COc1ccc(C2C(C(=O)OCC(=O)Nc3ccc(C)cc3)CCC(=O)N2c2ccc(OC)cc2)cc1 (configuration not stated),28%,1.0,2.0%,1%,12%,1.7%,-1.0
O=C(CSc1ncn[nH]1)N1CCN(c2nnc(-c3ccccc3)c3ccccc23)CC1,-8%,-0.6,3.7%,-26%,21%,·,0.9
COc1ccc(-c2cc(C(=O)N3CCCCCC3)c3ccccc3n2)cc1OC,8%,·,-19%,·,·,1.8%,1.8
O=C(CN1CCCC1)Nc1ccc(NC(=O)Nc2ccccc2)cc1,-15%,1.2,-25%,6%,8%,-1.5%,-2.8
CC1(C(=O)O)CCCN(C(=O)c2ccc(OC(F)F)cc2)C1 (configuration not stated),·,·,1.0%,·,·,1.4%,-3.2
Oc1c(C(c2ccccc2Cl)N2CCCC2)ccc2cccnc12 (configuration not stated),-18%,-0.1,-0.6%,-6%,2%,5.4%,-11
CCC(Sc1nc2ccccc2c(=O)[nH]1)C(=O)O (configuration not stated),?,9.7,-0.7%,7%,3%,·,-1.8
CCS(=O)(=O)c1nc(S(=O)(=O)c2ccc(C)cc2)c(N2CCCCCC2)s1,26%,·,-3.1%,·,·,1.0%,-2.4
COc1cc(NC(=O)CCC(=O)Nc2ccc3nc(N4CCOCC4)cc(C)c3c2)cc(OC)c1OC,-2%[15.4 µM],1.1,25µM*,1%,12%,7.1%,-4.2
CCc1ccc2c(c1)cc(CN(C(=S)Nc1cccc(C)c1)C1CC1)c1nnnn12,-3%,-3.6,-1.0%,32%[activator],12%,?,3.9
COc1ccc(NS(=O)(=O)c2ccc3c(c2)NC(=O)CCS3)cc1Cl,-13%,·,3.6%,16%,3%,1.3%,3.5
CCN1CCN(c2ccc(NC(=O)Cc3ccccc3)cc2)CC1,-8%,4.2,0.3%,2%,9%,-0.3%,-1.2
COc1ccc(C(=O)C2CCCN(Cc3cccn3-c3ccccn3)C2)cc1F (configuration not stated),22%,0.1,·,15%,-13%,2.9%,-2.8
O=C(C1CC1)N1N=C2CCCCC2C1(O)C(F)(F)F (configuration not stated),?,-3.7,-1.0%,8%,14%,-1.5%,4.5
COc1ccc(CN2CC(=O)N(c3ccc(C)c(C)c3)C2=S)cc1OC,-12%[15.4 µM],0.7,·,?,2%,6.2%,0.7
COc1ccc(NC(=O)CC2C(=O)N(Cc3cccs3)C(=S)N2C(C)C)cc1 (configuration not stated),4%[15.4 µM],3.7,·,-11%,8%,1.8%,-1.0
COc1ccc(C(=O)NCCN2CCN(C(=O)c3ccc(OC)cc3)CC2)cc1,21%,-0.4,-12%,5%,19%,-1.8%,1.5
CCOC(=O)N1CCN(C(=O)CNC(=O)c2ccc(Br)o2)CC1,6%[15.4 µM],-0.6,?,-17%,12%,-0.1%,-2.6
OCCCCC#Cc1c(-c2ccsc2)sc2ccccc12,·,-0.2,-30%,-7%,-2%,4.7%,1.6
CCCCCCn1cc(C(=O)O)c(=O)c2ccccc21,-12%,-1.1,-0.7%,-10%,10%,-1.8%,-0.3
CC(OC(=O)COc1ccccc1)C(=O)NC1CCCC1 (configuration not stated),13%,·,1.2%,16%,·,2.4%,-0.9
COc1ccc(-n2c(SCC(=O)N3CCOCC3)nc(O)cc2=O)cc1,-34%[inhibitor],·,0.2%,10%,6%,4.1%,-1.5
COc1ccc(NC(=O)Nc2cccc(NC(C)=O)c2)c(OC)c1,-1%[15.4 µM],-0.7,·,4%,-20%,0.9%,0.3
COc1ccc(-c2nnc(SCC(=O)Nc3nc4ccccc4s3)n2C)cc1,-29%,1.9,-1.4%,26%,6%,0.4%,-2.3
Cc1nc(SCC(=O)Nc2c(C)nn(C)c2C)c2cnn(-c3ccccc3)c2n1,?,0.0,-3.4%,3%,11%,4.7%,1.5
CCCCN(C=O)c1c(CC)nc2ccc(C(=O)NCCc3ccccn3)cn12,·,·,-10%,·,·,0.9%,-4.2
CCC(C)OC(=O)C1=C(C)OC23OC(N)=C(C#N)C12C(=O)c1ccccc13 (configuration not stated),-1%,-0.4,-1.9%,?,-3%,-0.6%,-0.2
Cn1c(N)c(C(=O)COC(=O)Cc2cccs2)c(=O)n(C)c1=O,8%,·,1.4%,9%,·,-1.9%,2.6
CC1=C(C(=O)N(C(C)C)C(C)C)CC(CC(=O)NCCN2CCOCC2)C(=O)N1Cc1ccc(F)cc1 (configuration not stated),·,·,-0.4%,·,·,1.0%,-3.7
CC(NS(=O)(=O)c1ccc(F)cc1)C(=O)Nc1ccc2c(c1)OCCO2 (configuration not stated),-3%[15.4 µM],·,-3.6%,2%,0%,-0.3%,-4.3
# Later entries:
SMILES,gsp agonist,Menin-MLL FL inh,ClpP mod,gsp antag,Sfp inh,PINK1 expr mod,D2 agonist
CCOC(=O)c1sc(N/N=C/c2cc(Br)c(O)c(OC)c2)nc1C,-3%,15,?,0%,-80%,2.9%,41*
COc1c(S(=O)(=O)NCCCN2CCOCC2)ccc(Cl)c1Cl,-9%[15.4 µM],3.9,·,14%,2%,1.9%,-2.4
O=C(CCC(=O)N1CCOc2ccccc21)NCCc1ccccc1,-31%[inhibitor],-6.8,0.3%,3%,-4%,-0.5%,-5.0
Nn1cnc2scc(-c3ccc(Cl)cc3)c2c1=O,-12%,3.1,1.1%,-7%,5%,-0.8%,9.7
O=C(O)CCCNC(=O)c1nn(Cc2ccccc2)c(=O)c2ccccc12,-2%[15.4 µM],5.4,·,-16%,6%,-1.6%,5.8
Cc1cc(N2C(=O)c3ccc(C(=O)Nc4ccccc4O)cc3C2=O)no1,6%,-1.4,0.2%,1%,2%,4.2%,-2.3
COc1ccc(C(=O)NC(=S)Nc2ccc(CN3CCOCC3)cc2)cc1,6%[15.4 µM],7.5,·,1%,-3%,6.0%,0.0
O=C(C=Cc1ccco1)c1cc(Cl)ccc1O,-45%[inhibitor],·,-4.1%,-7%,·,-7.2%,-1.5
CCOc1ccc(NC(=O)COc2ccccc2)c([N+](=O)[O-])c1,-13%[15.4 µM],-3.7,-2.0%,4%,7%,4.8%,-0.6
CC(CNC(=O)c1cncc(O)c1)NC(=O)c1cncc(O)c1 (configuration not stated),-21%,-3.3,0.8%,-1%,79µM*,1.1%,-3.5

# Compound activity from PubChem.
